From PubChem BioAssay
RGS16-Gao = regulators of human RGS16-Galphao interaction; binding response (% of control), % at 10 µM; bead-based flow cytometry RGS16-Galphao binding, fluorescence; actives lie on both sides; O15492+P09471; AID 1441; 220,000 compounds, 0.38% hits;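 active means below 25% or above 175%, edge rows of some plates excepted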;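 further: Galphao activated by GDP with aluminum fluoride before binding; 100% = wells without compound and 0% = beads without RGS; some results beyond the cut were filed as inactive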
Target sequence (O15492 whole entry, looked up): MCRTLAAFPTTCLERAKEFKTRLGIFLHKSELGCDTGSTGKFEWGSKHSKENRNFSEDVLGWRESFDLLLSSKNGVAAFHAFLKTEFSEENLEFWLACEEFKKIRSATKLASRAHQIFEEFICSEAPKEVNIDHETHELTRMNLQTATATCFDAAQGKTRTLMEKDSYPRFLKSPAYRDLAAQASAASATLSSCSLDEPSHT
Target sequence (P09471 whole entry, looked up): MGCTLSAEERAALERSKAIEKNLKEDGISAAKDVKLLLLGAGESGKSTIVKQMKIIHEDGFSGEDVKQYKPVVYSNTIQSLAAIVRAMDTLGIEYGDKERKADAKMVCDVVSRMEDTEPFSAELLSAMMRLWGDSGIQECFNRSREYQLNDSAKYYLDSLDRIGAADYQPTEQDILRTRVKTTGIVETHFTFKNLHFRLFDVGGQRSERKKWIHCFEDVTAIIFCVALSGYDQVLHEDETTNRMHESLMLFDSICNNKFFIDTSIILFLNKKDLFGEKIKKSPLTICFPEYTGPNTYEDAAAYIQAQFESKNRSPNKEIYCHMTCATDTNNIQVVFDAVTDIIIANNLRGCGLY
Insulin prom inh = TRM-6 insulin promoter activity inhibition; inhibition, % at 2 µM; TRM-6 cells (human fetal islet line), insulin promoter-eGFP reporter, imaging; reporter expression induced with tamoxifen; 130,000 compounds, 0.9% hits;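 active means inhibition above the mean plus 3 SD, with well images judged a real hit on visual review, cut at about 60% in these data, passing the limit was not always enough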
GALR2 agonist = activates the human galanin receptor 2. GALR2-expressing cells, agonist activation read-out. O43603. activation, %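 (tested at 5 µM)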. 140,000 compounds, 0.48% hits;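 active means above mean plus 3 SD of all compounds, about 5% in these data, not always enough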;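 further: 0% = vehicle buffer wells and 100% = reference agonist at full effect; tested in CHO reporter cells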
PKD1 inh = inhibitors of human PKD1 kinase; Q15139; PKD1 kinase fluorescence polarization assay; inhibition, %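 (about 10 µM by stock and volumes)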; 200,000 compounds, 0.056% hits; AID 797;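 active means inhibition of 50% or more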;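 further: controls were vehicle for no effect and a reference inhibitor for full effect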
HSV augment = HSV replication enhancement; HSV replication augmentation in cells, fold increase; maximum fold increase; 220,000 compounds, 0.005% hits; AID 1956;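 active means peak rise of 1.5-fold or more in the series; tested in PC3 cells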;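 further: first round at 10 µM; read as green reporter fluorescence; hits show the peak of a series up to 25 µM; 1 = signal of infected wells without compound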
Insulin prom inh cell count = further read-out of Insulin prom inh, marked with its call; normalized cell count, %; measured here: cell count, toxicity; reference of the scale not given here;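 cells exposed to compound for 48 h; stained nuclei by imaging scaled within each plate; lower means fewer cells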
HSV augment primary fold = second read-out of HSV augment, no call of its own (marks repeat the call); fold increase; compound at 10 µM; measured here: primary screen fold increase 10 uM; tested in PC3 cells;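 GFP signal in the first replicate; 1 = infected wells without compound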
Active calls of the source: *; i = inactive; · = no result given. Only part of the results is shown; the hit share may differ from the screen's.

SMILES	RGS16-Gao	Insulin prom inh	Insulin prom inh cell count	GALR2 agonist	PKD1 inh	HSV augment	HSV augment primary fold
C=C(C=O)CC1CC(O)[C@]2(C)OC3CC4OC5C[C@]6(C)O[C@]7(C)CCC8OC9C[C@]%10(C)OC%11C(C)=CC(=O)OC%11CC%10OC9C[C@@H](C)C8OC7CC6O[C@]5(C)CC5OC5C4OC3CC2O1 (some centres undefined)	103	·	·	·	-3	i	0.42
O=[N+]([O-])[N-][n+]1cnn(Cc2ccccc2)c1	106	15	88	·	-6	i	1
COc1ccc(NP(=O)(Oc2ccc(Cl)cc2)Oc2ccc(Cl)cc2)cc1OC	101	30	143	-1.3	-3	i	0.87
CCCCn1c(O)c(C(CC)=NC(C)c2ccccc2)c(=O)[nH]c1=O (centres undefined)	97	-48	86	-1.2	-2	i	0.88
COC(=O)CNC(=O)c1cn(CCC#N)nc1-c1ccc(F)cc1	108	-262	104	·	-5	i	0.93
CCOC(=O)C(O)(c1ccc(N(C)C(=O)c2ccc(Cl)c(Cl)c2)cc1)C(F)(F)F (centres undefined)	102	-55	68	-0.6	-8	i	0.88
CN1CCN(c2nc([N+](=O)[O-])nn2C)CC1	102	-14	118	0.1	-6	i	0.96
CN1CCN(c2c[nH]c(=O)[nH]c2=O)CC1	104	-60	167	-1.1	-3	i	1
N#C/C(=C(/O)c1ccc(S(=O)(=O)N(CCCl)CCCl)cc1)c1nc2ccccc2[nH]1	105	·	·	·	·	i	0.86
CC(C)c1ccc(N2C(=O)NC(=O)/C(=C\c3cnc(-c4ccccc4)nc3)C2=O)cc1	101	·	·	-1.2	-2	i	1.2
Cc1cc(/C=C2\C(=O)NC(=O)N(Cc3ccccc3)C2=O)c(C)n1C1CC1	103	·	·	·	2	i	1.1
COc1ccc(CCNC2CCCCC2)cc1	98	·	·	·	0	i	0.97
Cc1cc(C)cc(-n2c(C)cc(/C=C3\C(=O)NC(=O)N(C)C3=O)c2C)c1	83	15	88	-1.6	-3	·	·
CC1=CC(=O)OC2CC3OC4C[C@@H](C)C5OC6CC7O[C@]8(C)C/C=C\C9OC%10CC%11OC(CC(C)CO)CC(O)[C@]%11(C)OC%10CC9OC8C[C@]7(C)O[C@]6(C)CCC5OC4C[C@]3(C)OC12 (some centres undefined)	103	·	·	·	-1	i	0.88
NC(=O)c1c(NC(=O)c2ccc(S(=O)(=O)N(CCCl)CCCl)cc2)sc2c1CCCCC2	101	12	169	-0.7	0	i	0.86
OC(c1ccccc1)(c1ccccc1)c1ccncc1	109	17	102	-1.3	-3	i	0.98
NC(=O)c1ccc(N=Nc2c(O)[nH]c(=O)[nH]c2=O)cc1	118	·	·	-0.7	-5	i	1.2
COc1ccc(CC(=O)N2CCN(C)CC2)cc1OC	110	26	85	-1.1	-8	i	0.87
CCC(NC(=O)OC(C)(C)C)C(=O)Oc1cc(C)cc2oc(=O)c3c(c12)CCC3 (centres undefined)	101	43	129	-1.1	1	i	1.1
CCCC(=O)OCC[N+](C)(C)C	104	9	89	0.2	-12	i	0.85
CC(C)CCCn1c(O)c(/C=C2/C=CC=N2)c(=O)[nH]c1=O	100	-128	77	-2.7	1	i	1.1
Cc1ccc(/C=C2\C(=O)NC(=O)N(Cc3ccccc3Cl)C2=O)o1	82	·	·	·	4	i	1.3
CC(C)(C)NS(=O)(=O)c1ccc(OCC(=O)N2CCN(Cc3ccccc3)CC2)cc1	107	-80	55	·	-13	i	1.1
COc1ccc(NP(=O)(Oc2ccccc2OC)Oc2ccccc2OC)cc1	101	-57	69	-1.3	-7	i	0.79
CC1(C)C2([N+](=O)[O-])CN3CN(C2)CC1([N+](=O)[O-])C3	101	·	·	·	-1	i	1.1

Of the compounds above, these have an aryl methoxy group.
SMILES	RGS16-Gao	Insulin prom inh	Insulin prom inh cell count	GALR2 agonist	PKD1 inh	HSV augment	HSV augment primary fold
COc1ccc(NP(=O)(Oc2ccc(Cl)cc2)Oc2ccc(Cl)cc2)cc1OC	101	30	143	-1.3	-3	i	0.87
COc1ccc(CCNC2CCCCC2)cc1	98	·	·	·	0	i	0.97
COc1ccc(CC(=O)N2CCN(C)CC2)cc1OC	110	26	85	-1.1	-8	i	0.87
COc1ccc(NP(=O)(Oc2ccccc2OC)Oc2ccccc2OC)cc1	101	-57	69	-1.3	-7	i	0.79

As entered above:
PKD1 inh with NC(=O)c1ccc(N=Nc2c(O)[nH]c(=O)[nH]c2=O)cc1 = -5
GALR2 agonist with CCCC(=O)OCC[N+](C)(C)C = 0.2
HSV augment primary fold with CC(C)c1ccc(N2C(=O)NC(=O)/C(=C\c3cnc(-c4ccccc4)nc3)C2=O)cc1 = 1.2
HSV augment primary fold with N#C/C(=C(/O)c1ccc(S(=O)(=O)N(CCCl)CCCl)cc1)c1nc2ccccc2[nH]1 = 0.86
Insulin prom inh with COc1ccc(NP(=O)(Oc2ccc(Cl)cc2)Oc2ccc(Cl)cc2)cc1OC = 30

Random excerpt: four compounds from above.
SMILES	RGS16-Gao	Insulin prom inh	Insulin prom inh cell count	GALR2 agonist	PKD1 inh	HSV augment	HSV augment primary fold
NC(=O)c1c(NC(=O)c2ccc(S(=O)(=O)N(CCCl)CCCl)cc2)sc2c1CCCCC2	101	12	169	-0.7	0	i	0.86
CC1(C)C2([N+](=O)[O-])CN3CN(C2)CC1([N+](=O)[O-])C3	101	·	·	·	-1	i	1.1
OC(c1ccccc1)(c1ccccc1)c1ccncc1	109	17	102	-1.3	-3	i	0.98
Cc1cc(C)cc(-n2c(C)cc(/C=C3\C(=O)NC(=O)N(C)C3=O)c2C)c1	83	15	88	-1.6	-3	·	·

Remaining list, next part
SMILES	RGS16-Gao	Insulin prom inh	Insulin prom inh cell count	GALR2 agonist	PKD1 inh	HSV augment	HSV augment primary fold
CSc1ccc(CN2CCN(C(=O)COc3cccc(C)c3)CC2)cc1	97	·	·	·	-2	i	0.98
CN(C)c1ccc(/C=C/C=C/c2sc3ccccc3[n+]2C)cc1	99	·	·	·	·	i	0.96
CC(=O)NC(Cc1ccc(N(CCCl)CCCl)cc1)C(=O)O (centres undefined)	51	33	94	-3.4	-10	i	0.73
Cc1cc(NC(=O)CCl)nn1C	101	·	·	·	-2	i	0.99
Cc1cc(C)nc(/N=C(\N)c2c(O)[nH]c(=O)[nH]c2=O)n1	103	-25	126	-4.7	8	i	0.83
CCCCN1C(=O)/C(=C/c2ccc(N(C)C)cc2)C(=O)N(Cc2ccco2)C1=O	111	·	·	-0.9	-9	i	1.3
Cc1ccc(CN2CCN(C)CC2)c(C)c1	99	-9	91	0.4	-8	i	1
CCC(=NCCc1ccccc1)c1c(O)n(C)c(=O)n(C)c1=O	101	·	·	·	·	i	1
CN1CCN(Cc2ccc(Br)s2)CC1	103	4	87	-0.9	-9	i	0.97
CCOC(=O)C1(c2ccccc2)CCN(CC(=O)Nc2ccc(C)cc2)CC1	100	·	·	·	-7	i	0.92
c1ccc(CNCCc2ccc3c(c2)OCO3)nc1	118	-14	129	-3.5	-8	i	0.98
NCCCP(=O)(O)CCc1ccccc1	103	·	·	-2.8	-11	i	0.87
O=C1NC(=O)C2(Cc3ccccc3N3CCCC32)C(=O)N1Cc1ccccc1 (centres undefined)	102	-44	103	0.2	5	i	0.83
COc1ccc(OC)c(-n2c(O)c(C=NCc3ccc4c(c3)OCO4)c(=O)[nH]c2=O)c1	100	-15	120	0.5	8	i	1.1
COc1ccc(OC)c(-n2c(O)c(C=Nc3c(C)n(C)n(-c4ccccc4)c3=O)c(=O)[nH]c2=S)c1	101	·	·	·	·	i	1.2
